# Screening results: PubChem, several laboratories
# Mtb hypoxia inh – inhibitors of hypoxia-regulated fluorescent reporter in Mycobacterium tuberculosis; M. tuberculosis hypoxia-regulated fluorescent reporter, fluorescence; fluorescence inhibition, % (test concentration not listed); actives 0.1% (n = 300,000); AID 1159583;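 active = 35 to 45% if threefold the growth effect, above 45% if 1.5-fold the growth effect; inactive = the rest, general growth blockers included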;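 note: wells of about 50 µL received 100 nL stock; 0% = vehicle wells and 100% = reference inhibitor wells; whole bacteria with a GFP reporter of the hypoxia response; strong numbers were not always called active; many hits fall short of the cut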
# BJeLR viability – kills HRASV12-expressing BJeLR cells; actives 0.17% (n = 300,000); BJeLR (HRASV12) viability, CellTiter-Glo ATP luminescence, 48 h; reference of the scale not given here; inhibition, % (no concentration beside the values); AID 1554;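 active = replicate mean above 50%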;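 note: 50 nL library stock added to about 25 µL; numbers are from one replicate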
# Autofluor counter – flagged as autofluorescent in microsphere protease counterscreen; AID 624483; actives 3.1% (n = 360,000); fluorescence intensity (concentration not given with the values); compound autofluorescence counterscreen, microsphere flow cytometry; stronger effect = higher value;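 active = at least 3 SD above the mean of all compounds, about 16000 in these data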;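 note: 100 nL of 1 mM stock went into each well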
# RN4220 kill – S. aureus RN4220 growth inhibition; OD600, 16 h; inhibition, % (no concentration beside the values); actives 0.33% (n = 330,000); AID 1259311;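 active = z-score of -3 or lower and OD600 up to 0.18 on both plates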;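 note: plate controls were untreated cells for no effect and reference antibiotic for full effect; stock transfer was 100 nL into about 80 µL; one replicate is shown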
# PrP 5UTR inh – suppresses PrP 5' UTR mRNA reporter expression. cell-based PrP 5' UTR mRNA reporter, plate reader. inhibition, % (no concentration beside the values). actives 0.35% (n = 340,000). AID 488862;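 active = every replicate at 50% or more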;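 note: 0 = median of the neutral control wells; tested in H4 reporter cells; numbers are from one replicate; inactives centre near -14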
# ugtP null kill – growth inhibition of S. aureus ugtP deletion strain | S. aureus RN4220 ugtP deletion, OD600 growth, 16 h; some inactives read as strong as hits | growth inhibition, % (no concentration beside the values) | actives 0.54% (n = 330,000);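 active = z-score under -3 and OD600 up to 0.15 on both plates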;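 note: plate controls were untreated wells for no effect and antibiotic for full effect; wells of about 80 µL received 100 nL stock; the first replicate is given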
# Mtb hypoxia inh growth – recorded beside Mtb hypoxia inh, whose call it bears; growth inhibition, %; measured here: M. tuberculosis growth (absorbance);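 0% = vehicle and 100% = reference antibiotic; read after six days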
# The depositor's hits bear a star; . = not tested or not shown; & = joins results of further samples. Rows are unselected; overall some 4% were active at least once.
SMILES,Mtb hypoxia inh,Mtb hypoxia inh growth,BJeLR viability,Autofluor counter,RN4220 kill,PrP 5UTR inh,ugtP null kill
CCOC(=O)C1CCCN(Cc2cc(=O)oc3cc(C)c(C)cc23)C1 (centres undefined),-2,1,12,4303,12,-25,27
Cc1cccc(NC(=S)NCCCN2CCOCC2)c1,.,.,7,1965,4.8,-34,0
O=C(CSc1n[nH]c(-c2ccc(S(=O)(=O)N3CCCCC3)cc2)n1)Nc1nccs1,11,9,-14,11236,2.3,-4,-2
S=c1[nH]nc(COc2ccccc2)n1Cc1ccccc1,3,-5,-3,2512,4.4,-11,-7
Cc1ccc(/C=N/NC(=O)CSc2nc3ccccc3c(=O)n2-c2ccccc2)s1,.,.,5,7962,.,-11,.
COC(=O)CC1c2cc(F)cc(F)c2S(=O)(=O)N1C1CCN(Cc2ccccc2)CC1 (centres undefined),2,2,.,.,5.5,.,0
CCOC(=O)C1=C(C)Nc2ccccc2N=C1NC(=O)Cc1ccc(Cl)c(Cl)c1,-1,2,-21,3224,4.2,-14,-11
NC(=O)C[n+]1cccc(C(N)=O)c1,3,-3,-5,1985,-0.7,-2,1
Cc1ccc(S(=O)(=O)N2CCCCC2)cc1NC(=O)CSc1nccn1C,13,6,-5,3311,0.5,-7,1
Cc1ccc(-c2ccc(SCC(=O)Nc3cc(C)on3)nn2)cc1,-6,-2,8,3236,0.3,-10,-3
COc1ccc(NC2CC(=O)N(c3cccc(C)c3)C2=O)cc1 (centres undefined),7,1,3,10422,3.7,-16,11
O=C(O)c1ccccc1NC(=O)C(c1ccccc1)c1ccccc1,4,0,-8,.,4.9,-20,3
COc1ccc(CN2CCN(c3ccccn3)CC2)c(OC)c1C,11&15,12&3,5&2,3366&4713,2.0&3.1,-15&-14,1&5
O=C(CN1C(=O)C2(OCCO2)c2ccccc21)c1ccc(Br)cc1,5,14,-12,11004,-3.0,-21,3
CCSc1nnc(NS(=O)(=O)c2ccc(OC)cc2)s1,5,-3,8,4577,25,-30,-3
CC(C)(C)C(=O)NNC(=O)COc1ccc2ccccc2c1Br,-3,7,-1,3290,5.9,4,20
CCC(C)(C)n1c(=O)[nH]c2c(c1=O)CCC2,.,.,2,3009,1.5,-24,9
O=C1CNC(=O)N1CC(O)Cn1c2ccccc2c2ccccc21 (centres undefined),6,6,1,2667,2.2,-17,6
CCCCCOC(=O)Cn1c(=O)oc2ccccc21,0,7,-4,6538,3.5,-15,-2
CCc1ccc(NC(=O)NNC(=O)c2cc3ccccc3cc2O)cc1,-5,6,-12,6822,0.5,1,-2
O=C1C(=O)N(CCN2CCOCC2)C(c2ccccn2)/C1=C(/O)c1ccccc1 (centres undefined),.,.,0,2979,1.8,-15,4
CCn1c(=O)c(C(=O)NNS(=O)(=O)c2ccc(Br)cc2)c(O)c2ccccc21,-14,5,-2,3270,67,-21,53
CC(C)N(C(=O)C[n+]1ccc(/C=N/O)cc1)C(C)C,.,.,2,2521,.,-21,.
CN(CC(=O)Nc1ccccc1C(F)(F)F)C(=O)COc1ncnc2sccc12,2,-3,-6,2490,1.0,-11,8
CC(Sc1ccccn1)C(=O)Nc1ccc(S(N)(=O)=O)cc1 (centres undefined),7,7,-15,10004,2.9,-9,2
CCC(C)NC(=O)CN1C(=O)COc2ccc(S(=O)(=O)N3CCOCC3)cc21 (centres undefined),7,5,-1,6540,5.9,-13,5
CC1Cc2nc(SCC(=O)N3CCOCC3)n(-c3ccccc3)c(=O)c2S1 (centres undefined),-1,-2,0,5722,2.2,-11,-4
CCCOC(=O)CC1C(=O)NCCN1C(=O)OC(C)(C)C (centres undefined),14,2,.,4464,3.5,-17,6
COc1ccc(CCOC(=O)CNC(=O)c2ccc(Cl)cc2Cl)cc1,10,0,-8,4866,4.5,-20,17
CCc1ccccc1NC(=O)CNC(=O)c1cc(C2CC2)nn1-c1ccccc1,-2,11,.,3797,-1.0,-15,-3
NS(=O)(=O)c1ccc(NC(=O)CSC2=NC(=O)C(c3ccccc3)C(=O)N2)cc1 (centres undefined),-13,-5,-5,9604,-0.4,-13,-4
CC(=O)Oc1c(C(=O)c2nnc(C)o2)c(=O)n(C)c2ccccc12,-2,0,5,2279,1.6,-6,0
Cc1ccc(N/C(N)=N/c2nc(CSc3nnc(C)s3)cc(=O)[nH]2)c(C)c1,0,12,17,3207,6.4,-15,6
CCn1c(CCNC(=O)c2ccc(C)cc2)nnc1SCc1ccc(Cl)c(Cl)c1,3,6,9,2242,2.4,0,-2
CCOC(=O)Cn1nnnc1CN(Cc1ccc(OC)cc1)Cc1cc2cc(CC)ccc2[nH]c1=O,4,-5,5,7127,6.1,-1,1
CCCCOc1ccc(C(=O)NNC(=S)NC(=O)CC)cc1,3,10,7,2906,94*,28,98*
S=c1[nH]c(-c2ccccc2)cn1N=Cc1cccs1,17,4,.,.,17,.,5
CN(CCc1ccccc1)C(=O)c1ccc(NC(=O)Cc2ccc(NC(=O)C3CCN(C(=O)C4CCCCC4)CC3)cc2)cc1,-9,8,.,2579,6.0,-32,0
Cc1noc(C)c1COc1cccc(C(=O)OCC(=O)NC(=O)c2ccc(OC(F)F)cc2)c1,2,3,-8,2648,6.6,-8,3
COc1cc(OC)c(C(=O)Nc2ccccc2-c2ccccc2)cc1OC,7,13,4,8507,1.0,-19,6
O=C(Cn1cnc2c(NCc3ccccc3)ncnc21)NCc1ccc2c(c1)OCO2,-7,0,.,2908,-5.7,-17,-7
CC(C)N(CC#CC(O)(c1ccccc1)c1ccccc1)CCO,5,4,-1,2138,4.0,-10,3
CC(C)(C)c1ccc(C(=O)N/C(N)=N/c2nc3ccccc3o2)cc1,.,.,-2,5829,-8.2,-6,-32
COc1ccc(/C=C/C(=O)N(CCC(N)=O)c2ccccc2)cc1S(=O)(=O)N1CCOCC1,3,0,.,5575,2.6,-8,11
CSc1ccccc1NC(=O)c1cc(C(C)C)on1,3,8,-17,9779,3.7,-50,4
COc1ccc(C(=O)c2ccc(Cl)cc2)c2ccccc12,.,.,6,4090,-5.2,-119,96*
Cc1nnc(N/N=C/c2ccccc2C(F)(F)F)n1N,.,.,-23,3851,.,-18,.
CCOC(=O)C(C)Sc1nc(-c2ccccn2)ncc1OC (centres undefined),4,10,4,4047,7.5,-11,-5
CCn1c(=O)c(CCC(=O)NCCN2CCOCC2)c(C)c2c(C)nn(-c3ccccc3)c21,10,1,7,4468,5.2,2,7
CCOc1ccccc1N(C(=O)c1ccco1)C(C(=O)NC1CCCC1)c1cccnc1 (centres undefined),18,9,-1,3227,-16,-4,-10
CCC(=O)OC1(C(C)=O)CCC2C3CCC4=CC(=O)CCC4(C)C3CCC21C (centres undefined),-7,5,.,3852,1.8,-32,0
Cc1c(NC(=S)NN=C/C=C/c2ccc([N+](=O)[O-])cc2)c(=O)n(-c2ccccc2)n1C,1,1,.,.,1.2,.,88*
O=C(CNS(=O)(=O)c1ccccc1)Nc1ccc2c(c1)OCO2,12,-5,5,4713,-0.6,-26,-3
c1ccc(CCn2nnnc2CN2CCc3ccccc32)cc1,.,.,7,3801,1.8,-5,-7
CC1(C)Oc2ccc(C(=O)NC3CCCC3)cc2N(CC(=O)NC2CCCC2)C1=O,8,8,-3,15363,2.8,-3,9
C/C(=N\N1CCN(Cc2ccc(Cl)cc2)CC1)c1ccc([N+](=O)[O-])cc1,.,.,-3,3861,.,11,.
C=CCc1cccc(CNc2c(C)cc(C)cc2C)c1O,8,3,.,4368,-0.3,-18,-5
CCOc1cc2[nH]c(=O)n(CCC(=O)N3CCN(c4ccccc4OC)CC3)c(=O)c2cc1OCC,0,9,16,3773,6.4,-12,-4
COC(=O)c1ccc(-n2c(C)cc(C(=O)COC(=O)CC3Sc4ccccc4NC3=O)c2C)cc1 (centres undefined),4,2,-8,7800,5.1,-9,0
CCN(CCCNC(=O)CN(C)S(=O)(=O)c1ccc2c(c1)CCC(=O)N2)c1cccc(C)c1,-8,5,5,6481,3.0,-6,-1

# Taken from above.
# In BJeLR viability, CC1(C)Oc2ccc(C(=O)NC3CCCC3)cc2N(CC(=O)NC2CCCC2)C1=O reads -3
# In Mtb hypoxia inh growth, CCc1ccccc1NC(=O)CNC(=O)c1cc(C2CC2)nn1-c1ccccc1 reads 11

# Next structures follow.
SMILES,Mtb hypoxia inh,Mtb hypoxia inh growth,BJeLR viability,Autofluor counter,RN4220 kill,PrP 5UTR inh,ugtP null kill
CCN(CC)S(=O)(=O)c1cccc(C(=O)N[C@H](C(=O)NCc2ccc(Cl)cc2)C(C)C)c1,.,.,6,5475,-1.4,-17,2
CCCCN1C(=O)c2ccc(C(=O)OCC(=O)NCCc3ccc(S(N)(=O)=O)cc3)cc2C1=O,1,3,.,3159,4.2,-15,1
COc1ccc(NC(=S)NN=Cc2cccn2Cc2ccccc2F)cc1,12,11,.,.,8.0,.,4
COCCCNC(=O)c1ccc2c(=O)n(Cc3ccc(Cl)cc3)c(=S)[nH]c2c1,10,-1,-9,2902,-3.3,3,14
C[C@@H]1NC(=O)N[C@@H]1CCCCCC(=O)O,.,.,-8,1754,.,-9,.
CCOc1ccc(C(CC(=O)O)NC(=O)c2ccco2)cc1 (centres undefined),11,7,4,19729*,6.5,-12,-6
C/C(=N\NC(=O)C1(C)NC(C)(C)Cc2ccccc21)c1ccccc1 (centres undefined),.,.,0,2637,.,-23,.
CC(=O)c1ccc(NC(=O)C2CC(=O)Nc3nc4ccccc4n32)cc1 (centres undefined),9,5,-4,3894,1.1,-12,3
O=C1NC(=O)C2(Cc3ccccc3N3CCCC32)C(=O)N1c1ccc(Cl)cc1 (centres undefined),1,9,.,.,3.5,-16,-6
COc1ccc2[nH]c(C)c(CCNCc3cn(C)c4ccccc34)c2c1,-1,6,.,9079,-3.8,-3,-13
Cn1c(=O)c2c(nc(Sc3ncnn3CC(=O)NC3CCCCC3)n2C)n(C)c1=O,9,4,-11,.,1.7,-13,-3
CC1CCN(CCCNC(=O)c2cc3c(s2)-c2ccccc2OC3)CC1,15,8,6,5892,-4.8,-6,-1
Cc1ccc(C)[n+](CC(=O)N2CCCCC2)c1,5,11,.,3878,3.5,-19,6
CCN(CC)CC(=O)c1ccc(-c2ccccc2)cc1,-9,11,2,9589,7.6,-28,-11
Cc1cc(NC(=O)CCC(=O)N(CC(=O)NC2CCCC2)c2ccc(F)c(Cl)c2)no1,-3,-3,10,4318,1.0,-14,0

# Entries above that have a Cl atom, in the order listed:
SMILES,Mtb hypoxia inh,Mtb hypoxia inh growth,BJeLR viability,Autofluor counter,RN4220 kill,PrP 5UTR inh,ugtP null kill
CCOC(=O)C1=C(C)Nc2ccccc2N=C1NC(=O)Cc1ccc(Cl)c(Cl)c1,-1,2,-21,3224,4.2,-14,-11
COc1ccc(CCOC(=O)CNC(=O)c2ccc(Cl)cc2Cl)cc1,10,0,-8,4866,4.5,-20,17
CCn1c(CCNC(=O)c2ccc(C)cc2)nnc1SCc1ccc(Cl)c(Cl)c1,3,6,9,2242,2.4,0,-2
COc1ccc(C(=O)c2ccc(Cl)cc2)c2ccccc12,.,.,6,4090,-5.2,-119,96*
C/C(=N\N1CCN(Cc2ccc(Cl)cc2)CC1)c1ccc([N+](=O)[O-])cc1,.,.,-3,3861,.,11,.
CCN(CC)S(=O)(=O)c1cccc(C(=O)N[C@H](C(=O)NCc2ccc(Cl)cc2)C(C)C)c1,.,.,6,5475,-1.4,-17,2
COCCCNC(=O)c1ccc2c(=O)n(Cc3ccc(Cl)cc3)c(=S)[nH]c2c1,10,-1,-9,2902,-3.3,3,14
O=C1NC(=O)C2(Cc3ccccc3N3CCCC32)C(=O)N1c1ccc(Cl)cc1 (centres undefined),1,9,.,.,3.5,-16,-6
Cc1cc(NC(=O)CCC(=O)N(CC(=O)NC2CCCC2)c2ccc(F)c(Cl)c2)no1,-3,-3,10,4318,1.0,-14,0
